RE007 growth inh: qHTS Assay for Inhibitors of the HIV-1 protein Vpr | 360,000 tested, 0.21% active | Potency, µM (titrated, usually from 92.2 µM), inactives show top-dose activity change, negative = less growth | S. pombe RE007 Vpr strain, BacTiter-Glo ATP luminescence, 24 h; control for the full effect not named in the record; active = well fitted falling curve with a large enough effect; inconclusive = small, poorly fitted or top-dose-only effect; inactive = no such curve, though single readings can be large or run the other way;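 also: % is scaled to controls: 0 for no effect and ±100 for the full control effect; nearly all actives have a fitted effect of over 50% in size; the assay follows cell death caused by Vpr and the record does not say whether a fall means rescue or toxicity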
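Fission yeast strain RE007, carrying one chromosomally integrated HIV-1 vpr copy, was seeded at OD 0.01 in PMG+AL medium with 23 nL pinned compound. After 24 h at 30 °C and 99% humidity, viability was read by BacTiter-Glo luminescence.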
Cruzain noTriton: qHTS Assay for Promiscuous and Specific Inhibitors of Cruzain (without detergent); Cruzipain (Trypanosoma cruzi), P25779; purified cruzain, Z-FR-AMC fluorescence, no detergent; 200,000 tested, 2.3% active; Potency, µM, for the others: max response, negative = inhibition, actives largely listed as inhibitors; AID 1476, 2009; active = well fitted curve in the direction sought with a large enough effect; inconclusive = small, poorly fitted or top-dose-only effect, or another doubt; inactive = no such curve, though single readings can be large; an effect the other way counts as inactive or inconclusive;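 also: plate controls were enzyme without inhibitor for no effect and buffer without enzyme for full effect; nearly all actives have a fitted effect of over 40% in size; top concentration of the series not given in the record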
Target sequence (P25779 123-467 limits assumed): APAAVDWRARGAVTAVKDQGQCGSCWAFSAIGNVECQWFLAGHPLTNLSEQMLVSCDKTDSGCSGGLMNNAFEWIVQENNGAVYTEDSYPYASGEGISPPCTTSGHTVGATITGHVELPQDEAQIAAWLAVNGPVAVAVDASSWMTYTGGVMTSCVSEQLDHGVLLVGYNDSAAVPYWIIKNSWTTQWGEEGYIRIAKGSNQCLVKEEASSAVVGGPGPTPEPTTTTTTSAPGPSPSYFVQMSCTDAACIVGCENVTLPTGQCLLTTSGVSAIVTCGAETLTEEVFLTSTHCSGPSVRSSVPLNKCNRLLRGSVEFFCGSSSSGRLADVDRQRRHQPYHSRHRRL
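Purified cruzain at 1.5 nM, pre-incubated 15 min with compound at room temperature in 100 mM sodium acetate pH 5.5, 5 mM DTT, 0.00005% Triton X-100. Reaction started with 2 uM Z-FR-AMC; AMC fluorescence increase over 60 s gives rate.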
Lassa entry inh: qHTS for Inhibitors of binding or entry into cells for Lassa Virus; AID 540256, 2011; 300,000 tested, 1.2% active; Lassa virus pseudotype entry inhibition, cell reporter; control for the full effect not named in the record; Potency, µM (series often up to 37.9 µM), without a hit: top-dose activity change, negative = inhibition, usual class: inhibitors; active means well fitted inhibition curve with a large enough effect; inconclusive means small, poorly fitted or top-dose-only effect, or effect the other way; inactive means flat fitted curve, though single readings scatter; tested in HEK293 cells; also: % is scaled to controls: 0 for no effect and ±100 for the full control effect; nearly all actives have a fitted effect of over 50% in size; luciferase read-out
NS1 function inh: qHTS Assay for Inhibitors of Influenza NS1 Protein Function; Potency, µM (titrated, usually from 46.1 µM), for the others: top-dose activity, positive = more growth; S. cerevisiae slowed by influenza A NS1, growth recovery by OD600; 270,000 tested, 0.4% active; AID 2326, 2010; also: actives are rising curves; nearly all actives have a fitted effect of over 50% in size
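In this qHTS, NS1 from influenza A is expressed in budding yeast, where it slows growth. Cells are switched from glucose to 2% galactose medium (pH 6.0, -URA), treated with compound, and growth recovery is read at OD600.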
SARS PLP yeast: qHTS of Yeast-based Assay for SARS-CoV PLP; S. cerevisiae expressing SARS-CoV PLpro, growth rescue; control for the full effect not named in the record; Potency, µM (titrated, usually from 32.9 µM), without a hit: at the top dose activity, positive = growth rescue; 330,000 tested, 0.19% active; also: 0% is about no effect; nearly all actives have a fitted effect of over 55% in size; growth read by luminescence after 48 h
Marburg entry inh: qHTS for inhibitors of binding or entry into cells for Marburg Virus | AID 540276, 2011 | Marburg virus pseudotyped entry inhibition, cell reporter; control for the full effect not named in the record; about a third of the inactives were read at about 46 µM | Potency, µM (series often up to 37.8 µM), for the others: at the top dose activity change, negative = inhibition, hits mostly inhibitors | 300,000 tested, 1.8% active; active = well fitted inhibition curve with a large enough effect; inconclusive = small, poorly fitted or top-dose-only effect, or effect the other way; inactive = flat fitted curve, though single readings scatter; tested in HEK293 cells; about a fifth of its hits are not listed in these tables; also: % is scaled to controls: 0 for no effect and ±100 for the full control effect; luciferase read-out
Cruzain inh Det: qHTS Assay for Promiscuous and Specific Inhibitors of Cruzain (with detergent) | Cruzipain (Trypanosoma cruzi), P25779 | purified cruzain, Z-FR-AMC fluorescence, 0.01% Triton | Potency, µM, without a hit: max response, negative = inhibition, hits mostly inhibitors | 200,000 tested, 0.43% active; active = well fitted curve in the direction sought with a large enough effect; inconclusive = small, poorly fitted or top-dose-only effect, or another doubt; inactive = no such curve, though single readings can be large; an effect the other way counts as inactive or inconclusive;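 also: plate controls were neutral wells for no effect and buffer without enzyme for full effect; nearly all actives have a fitted effect of over 40% in size; top concentration of the series not given in the record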
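Detergent-containing arm of a paired screen for aggregation-based inhibition: 0.01% Triton X-100 present. Cruzain at 1.5 nM cleaved 2 uM Z-FR-AMC at pH 5.5 with 5 mM DTT; AMC fluorescence gain over 60 s measured activity.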
StopGo reporter: High Throughput Screening for Foot and Mouth Disease Virus Antivirals; AID 1159524, 2015; 410,000 tested, 1.2% active; human cells with a luciferase reporter of 2A StopGo recoding; control for the full effect not named in the record; Potency, µM (series often up to 57.9 µM), for the others: at the highest dose signal change, negative = less light; active = well fitted falling curve with a large enough effect; inconclusive = small, poorly fitted or top-dose-only effect; inactive = no such curve, though single readings can be large or run the other way; tested in HEK293T cells; also: % is scaled to controls: 0 for no effect and ±100 for the full control effect; nearly all actives have a fitted effect of over 45% in size; luciferase light after 4 h
Starred values were filed as active, the others as inactive; ? = inconclusive; . = no result given; & = joins results of further samples; [ ] = dose if it differs, or a comment. Unless noted, calls follow the shape of the dose curve; as a rule, active means well fitted rising curve with a large enough effect; inconclusive means small, poorly fitted or top-dose-only effect; inactive means no such curve, though single readings can be large or run the other way. Potency is read from the fitted curve at half-maximal effect.

SMILES	RE007 growth inh	Cruzain noTriton	Lassa entry inh	NS1 function inh	SARS PLP yeast	Marburg entry inh	Cruzain inh Det	StopGo reporter
Cc1ccc(C2Nc3ccccc3C(=O)N2CCN2CCNC2=O)cc1 (stereo not given)	6%	.	14%[46.1 µM]	6%	-1%	?	.	4%
COCCCNC(=O)CCSc1ccc(Cl)cc1	15%	-1%	-11%	-1%	3%	-22%	4.2%	21%
COCCn1c(C)cc(C2=NNC(=Nc3ccc(Cl)cc3Cl)SC2)c1C	16%	?	-15%	5%	1%	?	1.7%	5%
CN1CCN(S(=O)(=O)c2ccc(N3CCN(c4ccccc4O)CC3)c([N+](=O)[O-])c2)CC1	8%	.	?	.	-2%	?	.	?
Cc1cc([N+](=O)[O-])nn1CC(=O)Nc1nccs1	-8%	8%	0%	6%	-17%	0%	-1.2%	-25%
CCC1(O)c2ccccc2-c2ncccc21 (stereo not given)	0%	2%	-8%	11%	3%	-18%	5.8%	-1%
CCOC(=O)c1c(N)sc(C(=O)N2CCCCCC2)c1C	1%	0%	1%	-9%	1%	3%	1.0%	-23%
Cc1ccc(CSCC(=O)N(C)CC(=O)Nc2cccc(F)c2)cc1	2%	.	9%	.	3%	-2%[46.1 µM]	.	-11%
O=c1oc2ccccc2c(O)c1Cc1cc(Cl)c2cccnc2c1O	0%	.	4%[46.1 µM]	9%	10%	0%[46.1 µM]	.	-13%
CCOC(=O)C1=C(N)OC2=C(C(=O)CC(C)(C)C2)C1c1ccc(C)s1 (stereo not given)	26%	.	-3%	.	-7%	6%[46.1 µM]	.	3%
COc1ccc(OC)c(CCNC(=O)c2ccc(CS(=O)Cc3cccc(Cl)c3)o2)c1 (stereo not given)	-8%	12%	-23%&-8%[46.1 µM]	-1%	-4%	?	-4.7%	6%&-20%
COc1ccc(N(C)C(=O)c2oc(=O)c3ccccc3c2-c2ccc(C)cc2)c(OC)c1	-4%	-3%	?	-1%	-2%	-30%&-30%[46.1 µM]	-6.5%	?
O=C(O)CC1NC(=O)N(C2CCCCC2)C1=O (stereo not given)	-20%	.	2%	.	-2%	22%[46.1 µM]	.	-2%
O=C(O)CC(NC(=O)c1ccc2c(c1)OCO2)c1cccc([N+](=O)[O-])c1 (stereo not given)	-22%	.	-12%	.	-1%	?	.	11%
O=C(COc1ccccc1[N+](=O)[O-])OC1CCS(=O)(=O)C1 (stereo not given)	-4%	.	-3%[46.1 µM]	.	-2%	-9%[46.1 µM]	.	-2%
OCCOCCOCCn1c2ccccc2c2ccccc21	8%	?	5%	-36%	-5%	3%	1.9%	21%
Cc1cccc(N2CCN(S(=O)(=O)c3c(C)nc4scc(C)n4c3=O)CC2)c1C	0%	-7%	?	-3%	-9%	?	1.5%	-29%&-16%
O=[N+]([O-])c1cc(-c2ccc(C(=S)N3CCOCC3)o2)ccc1Cl	-18%	.	-15%[46.1 µM]	.	-9%	4%[46.1 µM]	.	-6%
COc1ccc(COc2ccc(C3C(S(=O)(=O)c4ccccc4)CON3C)cc2OC)cc1 (stereo not given)	-4%	.	-28%	-6%	0%	-28%[46.1 µM]	.	?
O=C(Nc1ccc(F)cc1F)C1CCCN(c2ncnc3c2nc2n3CCCCC2)C1 (stereo not given)	4%	.	?	-36%	-6%	?	.	?

Next section, overlapping the part above by 3 compounds.
SMILES	RE007 growth inh	Cruzain noTriton	Lassa entry inh	NS1 function inh	SARS PLP yeast	Marburg entry inh	Cruzain inh Det	StopGo reporter
O=[N+]([O-])c1cc(-c2ccc(C(=S)N3CCOCC3)o2)ccc1Cl	-18%	.	-15%[46.1 µM]	.	-9%	4%[46.1 µM]	.	-6%
COc1ccc(COc2ccc(C3C(S(=O)(=O)c4ccccc4)CON3C)cc2OC)cc1 (stereo not given)	-4%	.	-28%	-6%	0%	-28%[46.1 µM]	.	?
O=C(Nc1ccc(F)cc1F)C1CCCN(c2ncnc3c2nc2n3CCCCC2)C1 (stereo not given)	4%	.	?	-36%	-6%	?	.	?
Cn1c(=O)[nH]c(=O)c2c1nc(N1CCc3ccccc3C1)n2CCSc1nc2ccccc2s1	-3%	-24%	18%	-15%	8%	2%&2%	-2.9%	-20%
CCCOc1nc2c(c(=O)n(C)c(=O)n2C)n1CC	.	4%	.	-17%	7%	-6%	-0.1%	.
CCc1ccc2oc(-c3ccc(C)c(NC(=O)c4ccc(C#N)cc4F)c3)nc2c1	.	-8%	?	.	.	?	0.5%	74%[activator]
COC(=O)c1[nH]c2ccc(C)cc2c1NC(=O)CN1CCN(Cc2ccccc2)CC1	-13%	-2%	?	-10%	1%	-20%	2.2%	?
CN1CCN(c2nc3cc(C(F)(F)F)ccc3n3cccc23)CC1	-11%[18.4 µM]	1%&-6%	?	-3%	.	8.9µM*	-6.2%&-3.2%	-17%&-7%&-17%
O=C(NCc1ccccn1)C(C(=O)c1cccc([N+](=O)[O-])c1)n1cc(Cl)ccc1=O (stereo not given)	17%	.	.	-1%	-1%	.	.	6%
Cc1ccc2c(c1)C1CN(C)CCC1N2C(=O)CCCN1C(=O)c2cccc3cccc(c23)C1=O (stereo not given)	-5%	.	7%	-2%	-1%	7.9µM*	.	-3%
O=C(COC(=O)c1cc(S(=O)(=O)N2CCCCC2)ccc1N1CCOCC1)NC1CCCCC1	-1%	?	-11%	-10%	1%	-6%&11%	-0.6%	-5%
CC(=O)c1ccc(OCC(=O)OCc2cc(-c3ccco3)on2)cc1	-28%	.	7%	.	2%	5%	.	-7%
CCOC(=O)c1[nH]nc(N)c1NC(=O)c1ccc(Cl)cc1Cl	-6%	-8%	1%	-10%	10%	-9%	-2.8%	13%
Cc1[nH]c2ccc(C(=O)NCC(C)(C)N3CCOCC3)cc2c1C	14%	.	-33%	.	-8%	3%[46.1 µM]	.	-3%
CCc1ccc(NC(=O)C(=O)N/N=C(\C)CC(=O)Nc2ccc(OC)cc2)cc1	7%	.	.	-4%	-1%	.	.	29%
COc1ccc(C2/C(=C(/O)c3ccc(Br)cc3)C(=O)C(=O)N2C)cc1OC (stereo not given)	0%	.	.	-1%	10%	.	.	-2%
COc1ccc(CCC(C)NCC2CCCCC2)cc1 (stereo not given)	-6%	-2%	?	-7%	-16%	?	-1.2%	-11%
CC(NC(=O)COc1ccccc1)C(=O)NCc1ccc(S(N)(=O)=O)cc1 (stereo not given)	-3%	.	17%[46.1 µM]	.	-9%	?	.	8%
CC(=O)c1nn(-c2cccc(C)c2)cc1C(=O)c1cccc(Br)c1	-2%	.	-14%[46.1 µM]	.	.	?	.	29%
O=C1CC(c2nc(-c3ccc(Cl)cc3)no2)CN1c1ccc2c(c1)OCCO2 (stereo not given)	.	-10%	23%[46.1 µM]	.	.	.	0.2%	-20%
COc1ccc(/C=C/c2c(-c3cccc(C)c3)oc3ccc(-c4ccc5c(c4)OCO5)cc23)cc1	-1%	.	.	-5%	-9%	.	.	0%
COc1ccc(-n2c(=S)[nH]c3cc(C(=O)NCCCN4CCCC4=O)ccc3c2=O)cc1OC	-12%	-8%	-12%	-7%	5%	-13%[46.1 µM]	-5.5%	13%
CCS(=O)(=O)C1=NSC2=NC(=O)/C(=C\c3cc(C)n(-c4cccc(OC)c4)c3C)C(=N)N21	0%	.	2%	.	-2%	3%	.	4%

Part of the list above with just Marburg entry inh, NS1 function inh and Lassa entry inh:
Molecule	Marburg entry inh	NS1 function inh	Lassa entry inh
O=C(COC(=O)c1cc(S(=O)(=O)N2CCCCC2)ccc1N1CCOCC1)NC1CCCCC1	-6%&11%	-10%	-11%
CN1CCN(c2nc3cc(C(F)(F)F)ccc3n3cccc23)CC1	8.9µM*	-3%	?
CC(=O)c1nn(-c2cccc(C)c2)cc1C(=O)c1cccc(Br)c1	?	.	-14%[46.1 µM]

New compounds follow:
SMILES	RE007 growth inh	Cruzain noTriton	Lassa entry inh	NS1 function inh	SARS PLP yeast	Marburg entry inh	Cruzain inh Det	StopGo reporter
CCCC1CCC(=NNC(=O)OC(C)(C)C)CC1 (stereo not given)	6%	-1%	.	-1%	-9%	3%	9.0%	-3%
CCCCC(O)(CCN1CCOCC1)c1ccc(Cl)cc1 (stereo not given)	12%	-8%	-1%	-16%	22%	-26%	-4.7%	-26%
COc1ccccc1C(=O)NNC(=O)c1sccc1-n1cccc1	2%	.	.	3%	0%	.	.	-5%
Cc1ccc(-c2nc(N3CCCC(C)C3)c3ccccc3n2)cc1 (stereo not given)	.	-1%	-9%[46.1 µM]	.	.	7%[46.1 µM]	-2.3%	-15%
CCC1Oc2ccccc2N(CC(=O)NCCCN2CCCCC2CC)C1=O (stereo not given)	-12%	5%	-4%	-4%	-4%	-3%	-0.8%	.
O=C(NCCc1ccc(Cl)cc1)c1cccn1-c1nnc(N2CCCC2)s1	.	-5%	4%[46.1 µM]	.	.	.	-3.4%	2%
Cc1ccccc1-c1nnc(-c2ccccc2)o1	?	-4%	?	-85%	-9%	?	-7.2%	16%
CC(=O)N(C(C)=O)c1ncc2c([nH]c3ccccc32)c1C#N	8%	-9%	-14%	-12%	1%	?	4.1%	-2%
O=C(COC(=O)c1ccc2ncsc2c1)Nc1ncc(Cl)cc1Cl	2%	-23%	-11%	22%	22µM*	1%	-14%	-29%
COCCn1c(SCC(=O)Nc2ccc3[nH]c(=O)[nH]c3c2)nc2ccccc2c1=O	6%	.	2%	-1%	6%	-10%[46.1 µM]	.	0%
COc1ccc(C2CC(c3cccs3)Nc3nnnn32)cc1 (stereo not given)	-10%	.	-12%	.	0%	-13%[46.1 µM]	.	12%
CSc1nc2c(c(=O)n1-c1ccc(F)cc1)SCC2	-6%	3%	12%	-1%	-7%	2%	-2.4%	.

Screening results from PubChem BioAssay.
